# Rango release inh: inhibition of RanGTP-driven Rango-importin beta dissociation | O95149+P62826 | Biochemical FRET Rango-importin beta, RanGTP-induced dissociation | Potency, µM (doses to about 46.1 µM), without a hit: at the top dose activity change, negative = inhibition | 0.071% of 340,000 active | AID 540253; active means falling FRET ratio curve, often poorly fitted, with flat reads before Ran was added; inconclusive means other falling curves, or compound fluorescence or quenching; inactive means flat or rising ratio curve;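 note: potency is the fitted concentration of half-maximal effect; % of control where 0% means no effect; nearly all actives have a fitted effect of over 45% in size; -100% = wells without RanGTP and RCC1; the record marks most hits as doubtful in a second field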
#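 Compounds preincubate 5 min with complex of recombinant Rango and importin beta in PBS with 1 mM DTT. Ran (0.6 uM) loaded with 2 mM GTP plus 0.2 uM RCC1 starts dissociation; FRET is recorded 45 min later.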
# Rango-impB inh: prevents formation of the Rango-importin beta complex. Rango CFP/YFP FRET sensor + importin beta, 45 min. Potency, µM (series often up to 92.2 µM), for inactives: top-dose inhibition of complex formation. 0.031% of 340,000 active; active = rising FRET ratio curve, often small or poorly fitted; inconclusive = mostly compound fluorescence or quenching in the first reads; inactive = flat curves in all reads;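 note: potency is the fitted concentration of half-maximal effect; 0% = DMSO wells and 100% = buffer wells lacking importin beta; nearly all actives have a fitted effect of over 15% in size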
#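 FRET biosensor (snurportin 1 IBB flanked by EYFP and cerulean), 50 nM, with compound 5 min, then 0.125 microM importin beta in PBS, 1 mM DTT, 0.02% Tween-20, 0.1% BSA. CFP/YFP ratio read after 45 min at room temperature; pre-read flags interference.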
# GLA inh pH 4.5: inhibitors of human alpha-galactosidase A at pH 4.5. P06280. purified enzyme, 4-MU-alpha-Gal fluorescence, pH 4.5. activity change, negative = inhibition, % at 105 µM. 230,000 tested, under 10 active. AID 1467; inconclusive = small, poorly fitted or top-dose-only inhibition, or a rising curve; inactive = flat fitted curve, though single readings scatter; no compound was filed as active;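 note: 0% = full activity with enzyme and -100% = basal without enzyme; dose as in the result columns while the protocol names 77 µM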
# Target sequence (P06280 whole entry, looked up): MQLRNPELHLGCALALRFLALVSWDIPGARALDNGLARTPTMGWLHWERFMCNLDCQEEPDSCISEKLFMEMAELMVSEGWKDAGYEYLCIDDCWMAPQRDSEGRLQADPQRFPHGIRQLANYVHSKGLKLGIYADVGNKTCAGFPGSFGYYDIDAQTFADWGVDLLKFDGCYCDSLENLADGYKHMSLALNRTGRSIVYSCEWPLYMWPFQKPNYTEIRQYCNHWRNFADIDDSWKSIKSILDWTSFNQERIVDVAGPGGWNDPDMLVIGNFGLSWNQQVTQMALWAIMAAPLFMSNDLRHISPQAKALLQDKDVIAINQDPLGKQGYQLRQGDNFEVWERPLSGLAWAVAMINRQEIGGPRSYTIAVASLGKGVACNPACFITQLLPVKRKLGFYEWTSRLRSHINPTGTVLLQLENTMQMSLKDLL
# miR-21 reporter: raises the signal of a miR-21 reporter; 340,000 tested, under 10 active; HeLa miR-21 FLuc reporter, luciferase, 48 h; Potency, µM (top dose mostly 38.3 µM), inactives show at the top dose reporter change, positive = more light; active = well fitted rising curve with a large enough effect; inconclusive = small, poorly fitted or top-dose-only effect; inactive = no such curve, though single readings can be large or run the other way;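 note: % of control where 0% means no effect; miR-21 action dims this reporter so a rising signal means less miR-21 action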
#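 Luminescence from a firefly luciferase reporter carrying a miR-21 binding site downstream, stably expressed under a CMV promoter in HeLa cells that make miR-21 endogenously, reports miRNA modulation after 48 h compound exposure up to approximately 40uM final.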
# * hit, by the source's call; ? = inconclusive; . = not tested or not shown; & = joins results of further samples.
# Fields: Rango release inh | Rango-impB inh | GLA inh pH 4.5 | miR-21 reporter
CC(C)CCN1CCC(C)(NC(=O)c2ccccc2)C1=O (stereo unspecified)
    35% | 0.8% | . | .
Cc1cccc(N2CCN(C(=O)NCc3ccc(F)cc3)CC2)c1C
    -2% | 0.3% | . | 4%
COc1ccc(NC(=O)c2ccc3ccccc3c2OC)cc1
    -8% | 0.3% | . | .
O=C(NCc1ccccn1)C1CC(c2ccccc2Cl)=NO1 (stereo unspecified)
    ? | 2.8% | 2 | -10%
CC(=O)N1CCc2cc(S(=O)(=O)CCC(=O)Nc3ccccc3F)ccc21
    -7% | 2.8% | . | 0%
NC(=O)c1ncn([C@@H]2O[C@H](CO)[C@@H](O)[C@H]2O)c1O
    ? | 0.9% | -3&-11 | 0%
O=C(CCNC(=O)c1ccccc1Cl)NCc1cccnc1
    10% | 3.5% | . | .
CCCCn1c(N)c(N(CC(C)C)C(=O)C2CCN(S(=O)(=O)c3ccc(C)cc3)CC2)c(=O)[nH]c1=O
    16% | 0.8% | . | .
C=CCn1c(Cc2ccccc2)n[nH]c1=S
    -16% | 0.6% | -8 | 1%
O=C(O)CCCC(=O)Nc1ccc(Sc2ccc([N+](=O)[O-])cc2)cc1
    1% | -2.9% | 0 | -3%
CCNC(=S)NCc1ccco1
    -2% | -0.7% | 1 | -5%
O=[N+]([O-])c1ccccc1OCCN1CCCC1
    9% | -4.3% | . | 0%
CC(=O)N1CCN(C2c3cccc4cccc(c34)C2NS(=O)(=O)c2ccccc2)CC1 (stereo unspecified)
    -4% | 3.4% | -3 | -6%
CCOC(=O)C1=C(CS(=O)(=O)c2ccccc2)NC(=O)NC1c1ccccc1OC (stereo unspecified)
    ? | 4.8% | . | 0%
CN(C(=O)c1cccc(NC(=O)Cc2ccc(NC(=O)C3CCN(C(=O)c4ccccc4)CC3)cc2)c1)C1CC1
    -1% | -0.8% | . | .
COc1ccc(C2N=C(N)N=C(N)N2c2ccc(C)cc2)cc1 (stereo unspecified)
    6% | 1.3% | 9 | -2%
CCOC(=O)c1nn(-c2ccc(C)cc2)c(=O)c2c(N)scc12
    -3% | 7.4% | -4 | 23%
O=c1c2ccccc2nc(SCc2ccccc2F)n1C1CCCC1
    -4% | 1.0% | 3 | -4%
O=C(CCc1[nH]c2ccccc2c1Sc1ccccc1)NCCO
    1% | 0.2% | 10 | 0%
CCOC(=O)CCSCC(=O)Nc1cc(C)on1
    11% | 0.2% | -4 | -8%
Cc1cc(C(F)(F)F)n2nc(C)c(-c3ccc(Cl)cc3)c2n1
    2% | 7.0% | 6 | -8%
Cc1ccc(C(=O)NC(=S)Nc2ccc(CN3CCCCC3)cc2)c(C)c1
    -9% | -5.3% | -2 | -4%
CC(C)=NNC(=O)CN1C(=O)NC2NC(=O)NC21 (stereo unspecified)
    11% | -0.1% | -1 | -5%
Cc1c(CC(=O)O)c(=O)oc2c(C)c(OCc3ccccc3)ccc12
    3% | -2.0% | . | -8%
O=C(O)c1cccc(N/N=C/c2ccc(F)c(F)c2)c1
    -8% | -0.7% | 2 | -65%
O=C(OCc1nnc(-c2ccc([N+](=O)[O-])cc2)o1)C1CC(=O)N(CCc2ccccc2)C1 (stereo unspecified)
    3% | 1.9% | . | .
O=C(CN1C(=O)NC2(CCCC2)C1=O)Nc1cc(C(F)(F)F)ccc1N1CCOCC1
    8% | 2.8% | . | .
O=C(O)CC(NS(=O)(=O)c1ccc(Br)cc1)c1ccco1 (stereo unspecified)
    14% | 0.0% | 0 | -7%
CCCCn1c(N)c(N(CC)C(=O)C2=NN(c3ccccc3)C(=O)CC2)c(=O)[nH]c1=O
    13% | 1.4% | . | .
Cc1ccc(CN2CCC(N3CCC(C(=O)NCC4CCCO4)CC3)CC2)o1 (stereo unspecified)
    -6% | -0.6% | 0 | -5%
COC(=O)c1c(S(=O)(=O)NCc2ccccc2)sc(C(=O)O)c1C
    2% | 3.7% | 6 | 1%
CCn1cc(C(=O)NCC(OC)OC)c(=O)c2cc(S(=O)(=O)N3CCOCC3)ccc21
    4% | -0.5% | . | -1%
CCOc1ccccc1NC(=O)Cn1ncc2ccc([N+](=O)[O-])cc21
    -7% | 2.7% | . | -1%
Cc1ccc(C(C(=O)NCc2ccccc2)N(C(=O)c2ccccn2)c2ccccc2)o1 (stereo unspecified)
    1% | 4.2% | . | 5%
CC(=O)N1CC2(c3ccccc3)CN(C(C)=O)CC(c3ccccc3)(C1)C2=O
    -4% | -0.4% | -7 | 6%
CNC(=O)COC(=O)c1nc(-n2nc(C)cc2C)ccc1Cl
    1% | -3.8% | 7 | -3%
COc1ccc(OC)c(N(CC(=O)NCc2cccnc2)S(C)(=O)=O)c1
    3% | 2.4% | -5 | -3%
CCOC(=O)c1cc(-c2ccc(OC)cc2F)nc2c1c(C)nn2CCC#N
    0% | -4.9% | -1 | -3%
COc1ccc(C(CNC(=O)c2sccc2C)N2CCOCC2)cc1 (stereo unspecified)
    -4% | -0.1% | . | .
COc1ccc(S(=O)(=O)NCCCc2ccccc2)cc1
    7% | 0.6% | . | .
CCOc1ccccc1C(=O)N1CCC(n2nnc3cc(C)ccc32)CC1
    -7% | 0.3% | 1 | -7%
Cc1ccccc1NC(=O)COC(=O)c1ccc(S(C)(=O)=O)c([N+](=O)[O-])c1
    -2% | 0.0% | 1 | ?
COCC(=O)N(C)c1nnc(-c2ccc([N+](=O)[O-])cc2)s1
    0% | -0.2% | 4 | -7%
Cc1cc(/C=C2\NC(=S)N(C)C2=O)ccc1N1CCCC1
    4% | -0.3% | ? | -49%
CC(Oc1cccc(Cl)c1)C(=O)NCc1ccc(S(N)(=O)=O)cc1 (stereo unspecified)
    15% | 0.1% | -2 | -2%
Cc1ccc(CCN2CC(C(=O)NCCCN3CCOCC3)CC2=O)cc1 (stereo unspecified)
    3% | 0.0% | -7 | -3%
CC1CCN(S(=O)(=O)c2nnc(NC(=O)COc3ccccc3)s2)CC1
    -5% | -2.8% | . | 1%
CCOC(=O)c1ccccc1NC(=O)COC(=O)c1ccc(OCC(=O)N2CCOCC2)c(OCC)c1
    2% | -1.9% | . | .
COC(=O)C1=C(C)N(CC2CC2)C(=O)N[C@H]1c1ccccc1
    7% | 0.2% | -2 | .
O=C(NNS(=O)(=O)c1ccc(F)cc1)c1sccc1-n1cccc1
    -2% | -4.2% | 0 | -2%
O=C(c1ccc(Cl)c(S(=O)(=O)N2CCCCC2)c1)N1CCN(c2ccccc2)CC1
    9% | 0.3% | . | 21%
CCn1c(SCC(=O)Nc2ccc(-c3nc4ccc(C)cc4s3)cc2)nnc1-c1ccccc1
    . | . | 4 | -47%
CC1CCN(c2c(NCC3CCC(C(=O)NCCc4ccc(Cl)cc4)CC3)c(=O)c2=O)CC1 (stereo unspecified)
    5% | 7.0% | -5 | 14%
COc1ccc(S(=O)(=O)N2c3ccccc3OCC2C)cc1 (stereo unspecified)
    4% | -0.5% | -8 | 25%
COc1ccc(-c2[nH]c(-c3ccccc3)nc2SCC(=O)NCc2ccco2)cc1OC
    6% | -0.9% | 5 | 2%
COCCNC(=O)c1c(N)n(/N=C/c2ccc(F)cc2)c2nc3ccccc3nc12
    ? | ? | -9 | -3%
CCOP(=O)(C1=C(O)C(=O)C(C(C)(C)C)=CC1=O)c1ccccc1 (stereo unspecified)
    -14% | 1.0% | -4 | 6%
COc1ccc2nc(NC(=O)C3CCN(S(=O)(=O)c4cnc[nH]4)CC3)sc2c1
    6% | 0.0% | 1 | 12%
CCCC(C(=O)NC1CCCC1)N(CCCN1CCOCC1)C(=O)c1snc(C(N)=O)c1N (stereo unspecified)
    2% | -0.3% | 8 | -5%
Cc1cccc(N(C(=O)c2nsc(Cl)c2Cl)C(C(=O)NC2CCCC2)c2ccc(O)cc2)c1 (stereo unspecified)
    2% | 15% | -11 | -16%

# In another format: two of the compounds above.
Cc1ccccc1NC(=O)COC(=O)c1ccc(S(C)(=O)=O)c([N+](=O)[O-])c1
  Rango release inh = -2%
  Rango-impB inh = 0.0%
  GLA inh pH 4.5 = 1
  miR-21 reporter = ?

COCC(=O)N(C)c1nnc(-c2ccc([N+](=O)[O-])cc2)s1
  Rango release inh = 0%
  Rango-impB inh = -0.2%
  GLA inh pH 4.5 = 4
  miR-21 reporter = -7%

# 6 entries from above, comma-delimited.
mol,Rango release inh,Rango-impB inh,GLA inh pH 4.5,miR-21 reporter
COC(=O)C1=C(C)N(CC2CC2)C(=O)N[C@H]1c1ccccc1,7%,0.2%,-2,.
O=C(NNS(=O)(=O)c1ccc(F)cc1)c1sccc1-n1cccc1,-2%,-4.2%,0,-2%
O=C(c1ccc(Cl)c(S(=O)(=O)N2CCCCC2)c1)N1CCN(c2ccccc2)CC1,9%,0.3%,.,21%
CCn1c(SCC(=O)Nc2ccc(-c3nc4ccc(C)cc4s3)cc2)nnc1-c1ccccc1,.,.,4,-47%
CC1CCN(c2c(NCC3CCC(C(=O)NCCc4ccc(Cl)cc4)CC3)c(=O)c2=O)CC1 (stereo unspecified),5%,7.0%,-5,14%
COc1ccc(S(=O)(=O)N2c3ccccc3OCC2C)cc1 (stereo unspecified),4%,-0.5%,-8,25%

# Next part.
# Fields: Rango release inh | Rango-impB inh | GLA inh pH 4.5 | miR-21 reporter
COc1ccc(NC(=O)C2CCN(c3nc(-c4ccc(OC)cc4)no3)CC2)cc1
    -10% | -3.1% | . | -4%
CN(C)CCCNCCNC(=O)/C=N\O
    13% | -2.0% | -5 | -4%
COc1cc(-c2nc(S(=O)(=O)c3ccc(Cl)cc3)c(N3CCOCC3)o2)cc(OC)c1OC
    12% | -1.0% | 0 | 1%
CCN(C(=O)CCc1nc(-c2ccc(OC)cc2)no1)c1cc(OC)ccc1OC
    5% | 2.1% | -5 | 19%
Cc1c(C(O)CN2CCN(Cc3ccc4c(c3)OCO4)CC2)c2ccccc2n1C (stereo unspecified)
    -10% | -3.6% | 1 | -1%
COc1ccc(C(=O)N2CCCC(CCC(=O)NCc3ccccc3F)C2)c(OC)n1 (stereo unspecified)
    -10% | -0.3% | . | -6%
O=C(COc1cccnc1[N+](=O)[O-])NCCc1ccc(Cl)cc1
    -2% | 0.6% | -8 | -13%
NS(=O)(=O)c1ccc(CCNC(=O)CN2CCN(c3ccc(F)cc3)CC2)cc1
    1% | -0.6% | 7 | 8%
COc1ccc(-c2nc(CS(=O)(=O)CC(=O)NCc3ccc(F)cc3)c(C)o2)cc1
    -17% | -1.4% | . | -4%
CCCCn1c(N)c(N(CC(C)C)C(=O)C2CC(=O)N(c3ccc4c(c3)OCCO4)C2)c(=O)[nH]c1=O (stereo unspecified)
    -13% | 5.2% | . | .
CC1CC(C)CN(S(=O)(=O)c2ccc3c(c2)oc(=O)n3CC(=O)NCCCOC(C)C)C1 (stereo unspecified)
    -8% | ? | . | 10%
Cc1ccc(C(=O)NCc2cccnc2)o1
    -24% | 1.9% | . | 1%
COc1ccc(Nc2nnc(SCC(=O)NC(=O)Nc3ccc4c(c3)OCCO4)s2)cc1
    5% | 0.7% | 10 | -22%
O=C(NNS(=O)(=O)c1cccc(Cl)c1Cl)c1cccc(S(=O)(=O)N2CCOCC2)c1
    -2% | -3.2% | 1 | -5%
COC(=O)[C@]1(Cc2ccccc2)N[C@H](CN(C)C(=O)NC(C)C)[C@@H]2C(=O)N(C)C(=O)[C@@H]21
    -2% | -0.6% | . | .
Cc1ccsc1C(=O)OCC(=O)NCc1ccc(Cl)cc1
    13% | -0.4% | . | .
CCCCN(CCCC)S(=O)(=O)c1ccc(N2CCCC2=O)c([N+](=O)[O-])c1
    6% | -1.2% | . | .
O=C(CSc1nnnn1-c1ccccc1)Nc1ccc(N2CCOCC2)cc1
    4% | ? | 2 | -3%
O=C(c1ccc(Cl)c(Cl)c1)N1CCC(=O)N(C(COCc2ccccc2)Cc2ccccc2)CC1 (stereo unspecified)
    6% | 6.2% | ? | -2%
CCC(C)(C)NC(=O)C(c1ccc(OC)cc1)N(Cc1ccco1)C(=O)CCC(=O)Nc1cc(C)on1 (stereo unspecified)
    -4% | -3.7% | -6 | 0%

# Assay outcomes as filed in PubChem.

# This is a subset, so the mix of outcomes need not match the whole.
